# GALR2 ag – GALR2 receptor agonists, primary screen, cell-based | 140,000 tested, 0.48% active | activation, %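 (tested at 5 µM)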 | GALR2-expressing cells, agonist activation read-out | Galanin receptor type 2 (Homo sapiens), O43603 | AID 803, 2007;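 active means above mean plus 3 SD of all compounds, about 5% in these data, not always enough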;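 further: 0% = vehicle buffer wells and 100% = reference agonist at full effect; tested in CHO reporter cells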
# Target sequence (O43603 whole entry, looked up): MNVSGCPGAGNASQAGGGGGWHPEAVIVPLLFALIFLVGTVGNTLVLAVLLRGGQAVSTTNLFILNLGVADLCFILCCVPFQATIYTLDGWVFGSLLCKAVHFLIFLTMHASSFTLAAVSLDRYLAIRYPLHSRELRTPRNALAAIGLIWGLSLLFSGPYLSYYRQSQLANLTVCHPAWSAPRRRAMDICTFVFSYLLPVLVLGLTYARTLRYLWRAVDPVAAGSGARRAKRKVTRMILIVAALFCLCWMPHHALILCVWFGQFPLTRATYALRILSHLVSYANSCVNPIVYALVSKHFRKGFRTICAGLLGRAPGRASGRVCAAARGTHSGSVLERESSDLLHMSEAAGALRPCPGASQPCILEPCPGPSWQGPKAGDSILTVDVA
# RGS16-Gao HTS – modulators of RGS16 binding to Galphao, primary screen, biochemical, human proteins, multiplexed bead flow cytometry; Regulator of G-protein signaling 16 (Homo sapiens) + Guanine nucleotide-binding protein …; binding response (% of control), % at 10 µM; bead-based flow cytometry RGS16-Galphao binding, fluorescence; actives lie on both sides; 220,000 tested, 0.38% active;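 active means below 25% or above 175%, edge rows of some plates excepted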;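 further: Galphao activated by GDP with aluminum fluoride before binding; 100% = wells without compound and 0% = beads without RGS; some results beyond the cut were filed as inactive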
# Target sequence (O15492 whole entry, looked up): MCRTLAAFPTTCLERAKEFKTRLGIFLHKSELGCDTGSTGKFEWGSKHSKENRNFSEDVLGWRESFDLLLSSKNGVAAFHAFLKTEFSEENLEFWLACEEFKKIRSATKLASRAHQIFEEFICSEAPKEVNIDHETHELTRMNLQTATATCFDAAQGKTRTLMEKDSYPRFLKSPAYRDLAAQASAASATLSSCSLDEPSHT
# Target sequence (P09471 whole entry, looked up): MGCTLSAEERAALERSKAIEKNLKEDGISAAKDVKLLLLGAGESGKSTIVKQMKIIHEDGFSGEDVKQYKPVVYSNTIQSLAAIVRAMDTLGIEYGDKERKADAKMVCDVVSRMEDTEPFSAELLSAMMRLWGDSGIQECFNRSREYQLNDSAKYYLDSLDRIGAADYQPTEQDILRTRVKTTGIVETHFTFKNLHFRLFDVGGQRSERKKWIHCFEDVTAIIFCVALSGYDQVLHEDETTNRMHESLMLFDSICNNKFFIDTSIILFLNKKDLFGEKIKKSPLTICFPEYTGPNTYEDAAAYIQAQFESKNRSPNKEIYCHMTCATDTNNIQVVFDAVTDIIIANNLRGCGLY
# HSV replic up – enhancers of HSV replication in host cells, fold increase, host cell viability | HSV replication augmentation in cells | maximum fold increase | 220,000 tested, 0.005% active;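 active means peak rise of 1.5-fold or more in the series; inconclusive means self-fluorescent or not available for retest; tested in PC3 cells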;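 further: first round at 10 µM; read as green reporter fluorescence; hits show the peak of a series up to 25 µM; 1 = signal of infected wells without compound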
# PKD1 kinase inh – inhibitors of human PKD1 kinase, biochemical, fluorescence polarization. inhibition, %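 (about 10 µM by stock and volumes)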. Serine/threonine-protein kinase D1 (Homo sapiens), Q15139. PKD1 kinase fluorescence polarization assay. 200,000 tested, 0.056% active;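 active means inhibition of 50% or more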;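 further: controls were vehicle for no effect and a reference inhibitor for full effect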
# INS promoter inh – inhibitors of insulin promoter-driven GFP, primary screen, imaging, TRM-6 cells (human fetal islet line), eGFP reporter, cell count; 130,000 tested, 0.9% active; reporter expression induced with tamoxifen; inhibition, % at 2 µM;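 active means inhibition above the mean plus 3 SD, with well images judged a real hit on visual review, cut at about 60% in these data, passing the limit was not always enough; inconclusive means inhibition over the cutoff but images rejected on review; inactive means inhibition not above the cutoff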
# INS promoter inh cell count – also measured in INS promoter inh; calls as there; normalized cell count, %; measured here: cell count, toxicity; reference of the scale not given here;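 cells exposed to compound for 48 h; stained nuclei by imaging scaled within each plate; lower means fewer cells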
# HSV replic up primary fold – also measured in HSV replic up; calls as there; fold increase; compound at 10 µM; measured here: primary screen fold increase 10 uM; tested in PC3 cells;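 GFP signal in the first replicate; 1 = infected wells without compound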
# Numbers without * were called inactive; i = inactive; ? = inconclusive; · = no result given.
No.	compound	GALR2 ag	RGS16-Gao HTS	HSV replic up	HSV replic up primary fold	PKD1 kinase inh	INS promoter inh	INS promoter inh cell count
1	C=CCOCCN(CC)CC	·	100	i	1.1	·	·	·
2	CCOC(=O)c1c(NC(=O)C2C3C=CC(CC3)C2C(=O)O)sc(C)c1CC (centres undefined)	0.3	98	i	1	3	-47	103
3	CCOc1ccc(-c2nc(CSCC(=O)NC3CCCc4ccccc43)c(C)o2)cc1 (centres undefined)	-1.1	103	i	1	-3	-3	76
4	O=[N+]([O-])c1ccc(C[n+]2ccc(Cc3ccccc3)cc2)cc1	·	107	i	0.97	-2	·	·
5	O=C(COc1cc(Cl)c(Cl)cc1Cl)Nc1cccc(O)c1	·	98	i	0.95	·	·	·
6	C/C(=C\c1ccccc1)CN1CCC(C(=O)N2CCCC(C)C2)CC1 (centres undefined)	·	109	i	0.99	-6	0	152
7	COc1ccc(-c2n[nH]c(=S)n2-c2cc(OC)ccc2OC)cc1	·	99	i	0.94	·	·	·
8	CC(C)C(=O)Nc1ccc(C(=O)NNC(=S)NC(=O)c2ccccc2[N+](=O)[O-])cc1	·	98	i	1.1	-6	·	·
9	COc1ccc(N(C(=O)c2ccncc2)S(=O)(=O)c2ccc3c4c(cccc24)C(=O)N3C)cc1	·	101	i	1.2	2	·	·
10	CCOc1cc(/C=N/NC(=O)c2ccc(-c3csc(Nc4ccc(C)cc4)n3)cc2)ccc1OCC(=O)O	·	99	i	1	-6	6	109
11	O=[N+]([O-])c1cc(Cl)cc2c1nc(NCCO)c1ccccc12	·	104	i	0.65	·	·	·
12	CCCCN(CC)CCCNC(=O)CC1Oc2ccccc2NC1=O (centres undefined)	-0.2	95	i	0.97	-11	·	·
13	COc1ccccc1NC(=O)c1ccc(NC(=O)COC(=O)CC(NC(=O)c2ccccc2Cl)c2ccccc2)cc1 (centres undefined)	-0.9	97	i	1	-3	3	123
14	NC(=O)c1noc(C(=O)N(CC(=O)NC2CCCC2)Cc2ccc3c(c2)OCO3)c1N	-0.8	84	i	0.88	0	-456	80
15	O=C(NC1CCCCC1)C(c1ccc2ncccc2c1)N(Cc1ccc(F)cc1)C(=O)c1cccs1 (centres undefined)	-2.9	62	i	0.84	6	15	119
16	COc1ccccc1NC(=O)c1ccc(NC(=O)COC(=O)CCC2CCCC2)cc1	-1.1	96	i	0.9	-8	19	152
17	COc1cc(/C=C(\C#N)c2nc3ccccc3[nH]2)c([N+](=O)[O-])cc1OCc1ccccc1	-3.1	97	i	1.1	-9	-3	92
18	CCC(=O)Nc1nc(C)c(-c2csc(Nc3cccc(C(=O)O)c3)n2)s1	·	97	i	0.99	0	·	·
19	COc1cccc(NC(=O)c2oc3ccccc3c2NC(=O)C(C)(C)C)c1	-0.3	103	i	0.83	4	-155	81
20	O=C1COc2ccc(C(=O)CSc3nnc(Cc4cccs4)n3-c3ccc(Cl)cc3)cc2N1	-0.6	99	i	1.1	-2	-2	101
21	Cc1ccc(C)c(S(=O)(=O)NCc2cccnc2)c1	-2.5	98	i	0.92	-8	5	102
22	COc1cccc(CNC(=O)CCS(=O)(=O)c2cccc3nonc23)c1	-1.8	103	i	0.89	3	9	111
23	O=C1CN(Cc2nc3cc(Cl)ccc3c(=O)[nH]2)CCN1	·	98	i	1	·	·	·
24	COc1ccccc1N1CCN(C(=O)C2CCCCN2S(=O)(=O)c2ccc(C)cc2)CC1 (centres undefined)	·	101	i	0.96	·	·	·
25	NC(=O)C(=O)N/N=C/c1c(F)c(F)c(F)c(F)c1F	·	94	i	0.84	-9	17	60
26	COc1ccc2c(c1OC)C(=O)OC2Nc1nc(-c2ccccc2)cs1 (centres undefined)	-1.8	104	i	0.62	1	17	70
27	CCOC(=O)N1CCC(NC(=O)C(CC(C)C)NC(=O)C2CCC(C)CC2)CC1 (centres undefined)	-2.3	108	i	1.1	2	-3	81
28	NNc1nc(-c2ccccc2)c2cc(Cl)ccc2n1	·	100	i	1	·	·	·
29	Cc1ccc2nc(SCC(=O)c3c(N)n(C)c(=O)n(C)c3=O)[nH]c2c1	·	101	i	0.86	-4	·	·
30	O=C(Cc1ccccc1)Oc1coc(CSc2ncccn2)cc1=O	·	101	i	0.94	-8	28	110
31	O=C(Nc1ccccc1)c1cccnc1N1CCCC1	-1.2	102	i	1.1	-6	25	104
32	O=C(NCc1ccccc1)C1CCC1	-1.5	14*	i	0.96	6	61	68
33	Cc1ccc(NC(=O)NC(=O)c2cnccc2C(F)(F)F)c(C)c1	·	101	i	0.99	·	·	·
34	COCCN(CCOC)S(=O)(=O)c1ccc(C(=O)Nc2nc3c(s2)CCc2ccccc2-3)cc1	13*	100	i	0.72	0	66	122
35	CCn1c(CNC(=O)COc2ccc(C(C)C)cc2)nnc1SCC(=O)Nc1ccc(F)cc1	-1.1	104	i	0.85	-2	-21	94
36	CCOC(=O)C1=NNC(C(=O)c2ccccc2)C1c1ccc(OC)cc1 (centres undefined)	-0.3	·	i	1.1	1	-5	69
37	CCCc1nc(SCC(=O)N2CCc3ccccc3C2)c2ccccc2n1	-1.2	87	i	0.83	0	50	83
38	COc1ccccc1N1CCN(C2CCN(C(=O)COc3cccc(C)c3)CC2)CC1	-1.1	116	i	1	-7	4	68
39	COc1ccc(C2=NN(CN3C(=O)C(=O)c4ccccc43)C(c3ccc(OC)cc3)C2)cc1 (centres undefined)	-1.0	98	i	0.89	-13	-71	135
40	N#Cc1cc(C#N)c(N2CCN(c3cccc(Cl)n3)CC2)nc1N	2.3	98	i	0.85	10	-2	98
41	N/C(=N\N=C\c1ccnc2ccccc12)SC1CC(=O)N(c2ccc(Br)cc2)C1=O (centres undefined)	-2.9	103	·	·	-8	33	125
42	Cc1ccccc1NC(=O)CSc1nc2cc3c(cc2cc1C)CCC3	-2.2	98	i	0.68	-7	-29	136
43	COc1ccccc1NC(=O)c1nnn(Cc2ccccc2)c1NC(C)=O	-0.7	94	i	0.87	-4	·	·
44	Cc1ccc(SCCC(=O)N2CCOCC2)cc1	-4.0	103	i	0.94	-7	20	100
45	Cc1noc(/C=C/c2ccco2)c1S(=O)(=O)N1CCC(C(=O)N2CCc3ccccc32)CC1	-4.5	100	i	0.96	2	·	·
46	O=C(Cc1nc2ccccc2[nH]c1=O)c1ccc(Cl)cc1	·	101	?	·	·	·	·
47	NC(CSCc1ccccc1Cl)C(=O)O (centres undefined)	·	101	i	0.93	-6	-142	61
48	CCCn1c(-c2ccc[nH]c2=O)nc2ccccc21	·	102	i	1.2	-10	·	·

# The closing 2 compounds of the part before come first, to join the parts.
No.	compound	GALR2 ag	RGS16-Gao HTS	HSV replic up	HSV replic up primary fold	PKD1 kinase inh	INS promoter inh	INS promoter inh cell count
47	NC(CSCc1ccccc1Cl)C(=O)O (centres undefined)	·	101	i	0.93	-6	-142	61
48	CCCn1c(-c2ccc[nH]c2=O)nc2ccccc21	·	102	i	1.2	-10	·	·
49	Cc1ccc(NC(=O)c2cc3cc(OC(F)(F)F)ccc3[nH]2)cc1	·	95	i	1	·	·	·
50	CCOc1ccc(OCC)c(S(=O)(=O)N2CCOCC2)c1	·	112	i	0.95	-1	7	82
51	N#CC1=C2Sc3ccccc3N2CCCC1=O	-1.2	95	i	1.2	3	14	75
52	Cc1ccc(C)c(N2CCN(C(=O)CCn3c(=S)[nH]c4cc5c(cc4c3=O)OCO5)CC2)c1	-0.2	97	i	0.82	-2	-11	92
53	Cc1ccc(CN=C(Nc2ccccc2)NC2CCCCC2)cc1	·	96	i	0.91	4	·	·
54	CC(Sc1nc2sc3c(c2c(=O)n1-c1ccccc1)CCCC3)C(=O)O (centres undefined)	·	98	i	0.96	·	·	·
55	O=C(CSc1cc(Cl)ccc1Cl)NC1CCCc2ccccc21 (centres undefined)	0.2	104	i	0.94	-9	-38	108
56	O=C1CN(c2nc(-c3cccnc3)nc3sc4c(c23)CCCC4)CCN1	·	114	i	0.83	-10	-6	99
57	CSc1ccccc1C(=O)Nc1ccc(C)cc1C	·	102	i	0.94	-7	·	·
58	O=C1CC(N2CCOCC2)C(=O)N1c1ccc2c(c1)OCO2 (centres undefined)	-1.3	97	i	0.98	-1	30	56
59	COc1ccc(N2CCN(C(=O)CSc3nnc(-c4cccnc4)n3-c3ccc(F)cc3)CC2)cc1	-1.2	91	i	0.89	-15	53	115
60	CC(C)C(=O)Nc1ccc2oc(=O)ccc2c1	·	106	i	0.98	3	·	·
61	c1csc(-c2cn3ccc4ccccc4c3n2)c1	·	101	i	1	7	86*	61*
62	Cc1cccc(C(=O)N[C@H](C(=O)Nc2ccc(C)c(S(=O)(=O)N(C)C)c2)C(C)C)c1	·	88	i	1	1	12	89
63	CCn1c2ccccc2c2cc(NC(=O)COC(=O)Cc3cn4ccsc4n3)ccc21	-0.2	101	i	0.82	3	·	·
64	CC1CCCN(C(=O)C2(NC(=O)Nc3cccc(F)c3)CCCCC2)C1 (centres undefined)	·	107	i	0.97	2	-67	103
65	O=C(CCc1ccccc1O)N/N=C/c1ccc(Sc2cccc3cccnc23)o1	0.3	96	i	0.77	-6	54	109
66	O=C(O)Cc1nc(-c2cccnc2)sc1-c1ccc(Br)cc1	·	97	i	1	·	·	·
67	O=C(COC(=O)Cc1c[nH]c2ccccc12)Nc1cccc2ccccc12	-0.7	114	i	0.99	0	-17	95
68	CC(=O)Nc1sc(N/N=C\c2ccccc2F)nc1-c1cccs1	-1.0	89	i	1	2	29	99
69	O=[N+]([O-])c1ccc(Sc2n[nH]c(-c3ccco3)n2)nc1	·	104	i	1.1	-3	·	·
70	CCOc1ccc(-c2c[n+]3c(n2-c2ccccc2)CCCCC3)cc1	-0.6	143	i	0.98	-4	·	·
71	O=S(=O)(Nc1ccc2cn[nH]c2c1)c1ccccc1	·	102	i	1.1	2	·	·
72	CN(C)c1cccc(C(=O)NCc2ccccc2)c1	·	101	i	0.81	2	·	·
73	Cc1nn(-c2ccccc2)c(N)c1Sc1ccccc1[N+](=O)[O-]	-1.8	97	i	1.1	-11	·	·
74	Cc1ccn2c(CN3CCOCC3)c(-c3ccccc3)nc2c1	-0.6	106	i	0.79	0	20	75
75	COCCNC(=O)CCc1c(C)nc2c(-c3ccc(F)cc3)c(C)nn2c1C	42*	108	i	0.65	-6	·	·
76	COC(=O)CCC(=O)c1oc2ccccc2c1N	-3.6	98	i	0.68	12	3	100
77	O=C1c2ccccc2C(Nc2ccc(F)c(Cl)c2)N1Cc1ccco1 (centres undefined)	-1.2	97	i	1.1	3	·	·
78	CCC1=C(OC(=O)N(CC)CC)N2C(=O)OC(=NCC(=O)OC)[C@]2(C)[C@H]2C1=CC[C@H]1C(=O)N(C)C(=O)[C@H]12	·	102	i	0.89	·	·	·
79	Cc1ccccc1-c1nc(CS(=O)CC(=O)NCCN2CCOCC2)c(C)o1 (centres undefined)	0.2	107	i	1.1	0	·	·
80	CCOc1ccc(N(CC(=O)NCCc2ccc(Cl)cc2)S(=O)(=O)c2c(C)[nH]c(=O)[nH]c2=O)cc1	·	93	·	·	-4	14	74
81	O=C(CN(C(=O)CSc1nnc(COc2ccccc2)o1)c1ccc(F)cc1)NC1CCCC1	-1.7	104	i	0.74	-15	·	·
82	COc1ccc(CCN(Cc2ccccn2)C(=S)Nc2ccccc2C)cc1OC	·	98	i	0.88	4	·	·
83	O=C(c1ccco1)N1CCCN(Cc2nc(-c3ccc4c(c3)OCO4)no2)CC1	·	99	i	1.1	0	·	·
84	CCN1C(=O)C(CC(=O)Nc2ccc(OC)cc2)N(CCc2ccc(F)cc2)C1=S (centres undefined)	·	101	i	0.89	-2	·	·
85	CN1CCN(c2ccccc2NC(=O)c2sc3ccccc3c2Cl)CC1	·	97	i	0.9	5	·	·
86	Cc1ccc2oc(=O)cc(CN3CCOCC3)c2c1	-0.8	101	i	0.99	-7	·	·
87	Cc1ccc(C(=O)c2cc3ccccc3o2)cc1	-1.2	98	i	1	-6	-13	97
88	CC(=O)c1cccc(NC(=O)C2C3C=CC(C3)C2C(=O)O)c1 (centres undefined)	·	97	i	0.96	-6	·	·
89	CCOCc1cnc(C)nc1NCC(=O)c1c(C)[nH]c2ccc(OC)cc12	0.6	94	i	0.91	-7	-13	99

# Assay outcomes: PubChem, several laboratories
